# Screening results: PubChem, National Center for Advancing Translational Sciences (NCATS)
# miR-21 FLuc: miR-21 reporter, rising signal; HeLa miR-21 FLuc reporter, luciferase, 48 h; Potency, µM (highest dose often 38.3 µM), for the others: top-dose reporter change, positive = more light; 340,000 tested, under 10 active; active = well fitted rising curve with a large enough effect; inconclusive = small, poorly fitted or top-dose-only effect; inactive = no such curve, though single readings can be large or run the other way;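 further: % of control where 0% means no effect; miR-21 action dims this reporter so a rising signal means less miR-21 action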
#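 Using DMEM plus 10% FBS, HeLa miR-21-FLuc cells are incubated with test compounds (final up to about 40uM) for 48 hours; firefly luciferase signal is then imaged following reagent-mediated lysis.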
# Rango release inh: inhibition of RanGTP-driven Rango-importin beta dissociation; Biochemical FRET Rango-importin beta, RanGTP-induced dissociation; Potency, µM (titrated, usually from 46.1 µM), for inactives: top-dose activity change, negative = inhibition; actives 0.071% (n = 340,000); AID 540253; active means falling FRET ratio curve, often poorly fitted, with flat reads before Ran was added; inconclusive means other falling curves, or compound fluorescence or quenching; inactive means flat or rising ratio curve;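 further: potency means the concentration at half of the fitted maximal effect; % of control where 0% means no effect; nearly all actives have a fitted effect of over 45% in size; -100% = wells without RanGTP and RCC1; the record marks most hits as doubtful in a second field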
#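 FRET read at 45 min, room temperature: inhibitors block the CFP/YFP signal rise when RanGTP (0.6 uM Ran, 2 mM GTP, 0.2 uM RCC1) frees Rango (0.1 uM) from importin beta (0.25 uM). Pre-read after 5 min compound exposure flags interference.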
# Rango-impB inh: prevents formation of the Rango-importin beta complex. Rango CFP/YFP FRET sensor + importin beta, 45 min. Potency, µM (titrated, usually from 92.2 µM), without a hit: at the top dose inhibition of complex formation. actives 0.031% (n = 340,000); active = rising FRET ratio curve, often small or poorly fitted; inconclusive = mostly compound fluorescence or quenching in the first reads; inactive = flat curves in all reads;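 further: potency means the concentration at half of the fitted maximal effect; 0% = DMSO wells and 100% = buffer wells lacking importin beta; nearly all actives have a fitted effect of over 15% in size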
# Target sequence (Q14974 whole entry, looked up): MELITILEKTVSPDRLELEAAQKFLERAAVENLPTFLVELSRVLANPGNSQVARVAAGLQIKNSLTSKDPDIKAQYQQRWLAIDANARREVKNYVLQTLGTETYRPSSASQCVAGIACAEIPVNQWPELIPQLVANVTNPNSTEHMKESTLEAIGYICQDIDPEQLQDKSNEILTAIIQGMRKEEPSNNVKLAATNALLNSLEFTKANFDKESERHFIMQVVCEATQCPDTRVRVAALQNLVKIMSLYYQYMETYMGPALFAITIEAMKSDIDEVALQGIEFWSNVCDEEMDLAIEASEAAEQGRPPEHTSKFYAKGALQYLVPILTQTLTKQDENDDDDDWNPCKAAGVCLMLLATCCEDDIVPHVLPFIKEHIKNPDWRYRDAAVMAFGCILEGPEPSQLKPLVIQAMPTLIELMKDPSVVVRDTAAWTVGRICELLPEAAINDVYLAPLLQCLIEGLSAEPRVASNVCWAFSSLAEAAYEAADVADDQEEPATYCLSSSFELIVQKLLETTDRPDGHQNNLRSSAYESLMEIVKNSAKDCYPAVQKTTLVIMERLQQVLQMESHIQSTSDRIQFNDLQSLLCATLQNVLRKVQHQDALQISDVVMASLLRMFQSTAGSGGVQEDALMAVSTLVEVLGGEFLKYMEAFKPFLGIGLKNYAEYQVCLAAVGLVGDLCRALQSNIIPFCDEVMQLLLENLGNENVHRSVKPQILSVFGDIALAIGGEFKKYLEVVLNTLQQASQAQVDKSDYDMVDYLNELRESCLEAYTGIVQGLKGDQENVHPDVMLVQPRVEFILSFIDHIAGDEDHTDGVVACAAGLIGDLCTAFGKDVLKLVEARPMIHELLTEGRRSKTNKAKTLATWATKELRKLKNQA
#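 FRET biosensor (snurportin 1 IBB flanked by EYFP and cerulean), 50 nM, with compound 5 min, then 0.125 microM importin beta in PBS, 1 mM DTT, 0.02% Tween-20, 0.1% BSA. CFP/YFP ratio read after 45 min at room temperature; pre-read flags interference.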
# GLA inh pH 4.5: alpha-galactosidase A (human) inhibition, pH 4.5; activity change, negative = inhibition, % at 105 µM; purified enzyme, 4-MU-alpha-Gal fluorescence, pH 4.5; P06280; 230,000 tested, under 10 active; inconclusive = small, poorly fitted or top-dose-only inhibition, or a rising curve; inactive = flat fitted curve, though single readings scatter; no compound was filed as active;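 further: 0% = full activity with enzyme and -100% = basal without enzyme; dose as in the result columns while the protocol names 77 µM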
# Numbers without * were called inactive; ? = inconclusive; / = no result given; [ ] = dose if it differs, or a comment. This is a subset (hit frequency here may not be typical).
entry	canonical_smiles	miR-21 FLuc	Rango release inh	Rango-impB inh	GLA inh pH 4.5
1	COC(=O)c1ccccc1NC(=O)CSc1nnc(C(CO)NC(=O)c2ccccc2)n1C (centres undefined)	0%	9%	1.0%	8
2	CC(=O)Nc1ccc(NC(=O)CCCn2cnc3ccccc3c2=O)cc1	-6%	8%	4.8%	/
3	O=C(NCc1ccon1)C1CCC(=O)N(CCc2ccc(Cl)cc2)C1 (centres undefined)	3%	-5%	2.5%	/
4	O=C(N/C(=C\c1ccc(Cl)cc1)C(=O)N1CCOCC1)c1ccc([N+](=O)[O-])cc1	-3%	13%	-4.9%	-5[21.1 µM]
5	C=CCOc1cccc(C2C(C(=O)c3cccs3)=C(O)C(=O)N2Cc2cccnc2)c1 (centres undefined)	0%	0%	-1.5%	5
6	O=C(Cc1ccccc1F)Nc1cccc(S(=O)(=O)N2CCOCC2)c1	/	-17%	-1.7%	/
7	CC(C)NC(=S)NC1(C)CCS(=O)(=O)C1 (centres undefined)	-5%	2%	-0.4%	-3
8	CCOC(=O)c1cn2nc(Oc3ccc(C#N)cc3)ccc2n1	-4%	?	0.9%	-8
9	OCc1ccc(OCCCOc2cccc3cccnc23)cc1	-18%	14%	0.3%	/
10	COc1cc(/C=N/N2C(=O)C3C4C=CC(CC4)C3C2=O)ccc1O (centres undefined)	-8%	-4%	-1.1%	-18
11	Cc1ccc2c(c1)nnc1nnc(SCC(=O)O)n12	3%	?	?	-12
12	O=C(N/N=C/C1CCCCC1)c1ccccn1	-47%	-6%	0.3%	-6
13	Cc1[nH]c2ccccc2c1C1=CC(=O)C=CC1=O	/	-15%	-3.9%	/
14	COc1ccc(/C=C/C(=O)c2cc(F)ccc2OC(=O)c2ccc(OC)c(OC)c2)cc1OC	18%	-17%	?	11
15	Cc1ccc(Cn2nc3c(cc2=O)CCc2ccccc2-3)cc1	-16%	31%	4.7%	-1
16	Cc1cc(C(=O)NC2CC(C)(C)Cc3c2cnn3-c2cccc(F)c2)n(C)n1 (centres undefined)	6%	9%	-0.6%	/
17	Cc1ccc(Cl)c2c(N=Nc3ccccc3)c(O)[nH]c12	-34%	?	?	/
18	COP(=O)(OC)C(Nc1ccc([N+](=O)[O-])cc1)c1ccccc1 (centres undefined)	6%	-9%	5.5%	-7
19	CC(=O)c1cnc2ncnn2c1C	-3%	0%	-0.2%	10
20	Cc1ccc(NC(=O)CSc2nnc(CNC(=O)C34CC5CC(CC(C5)C3)C4)n2-c2ccc(F)cc2)cc1	10%	7%	2.9%	-7
21	COc1ccc(C(=O)O)cc1NS(=O)(=O)c1cccc2nsnc12	-1%	-12%	2.0%	-27
22	COC(=O)c1cccc(NC(=O)CCN2C(=O)C3CC=CCC3C2=O)c1 (centres undefined)	/	-2%	-1.0%	/
23	Cn1c(N)c(C(=O)CSc2nnc(-c3ccccc3F)n2C2CC2)c(=O)n(C)c1=O	-1%	-11%	-3.9%	4
24	O=C(CNC(=O)c1ccccc1)OCc1cc(=O)n2cc(Br)ccc2n1	1%	14%	1.5%	-5
25	COc1ccc(NC(=O)N2CCN(c3nc(-c4cccc(OC)c4)cs3)CC2)cc1	23%	4%	?	-6
26	Cc1nc2ccccc2c2oc(C(=O)N3CCc4ccccc43)cc12	-4%	/	/	-6
27	CC(NC(=O)Nc1ccc(Cl)cc1)C(c1cccs1)N1CCOCC1 (centres undefined)	1%	9%	-1.2%	3
28	CCOc1c(Br)cc(/C=C2/SC(=O)N(CC(=O)N3CCCC3)C2=O)cc1OC	-1%	-12%	6.4%	-3
29	C#C[C@]1(O)CCC2C3CCC4=CC(=O)CC[C@@H]4C3CC[C@@]21C (some centres undefined)	-19%	-2%	3.9%	/
30	O=C(CCSc1ccccc1)NCc1cccnc1	-12%	9%	2.1%	0
31	COc1cccc(C=NNc2nc3ccccc3s2)c1OC	/	10%	-0.4%	/
32	C/C=C/Cn1c(SCCCc2ccccc2)nc2c1c(=O)[nH]c(=O)n2C	-10%	-4%	0.2%	7
33	Cn1nnnc1Sc1ncnc2scc(Br)c12	/	-8%	?	/
34	COc1ccc(CCNC(=O)CSc2nn3c(=O)c(C)nnc3s2)cc1OC	11%	1%	0.4%	/
35	c1cncc(Cc2cc3ccccc3[nH]2)c1	-5%	4%	-2.8%	-2
36	Cc1nc2c(c(=O)n1CCC(C)C)c1nc3ccccc3nc1n2Cc1ccc2c(c1)OCO2	0%	3%	-1.6%	-13
37	COc1ccc(/C=C(/NC(=O)c2ccc([N+](=O)[O-])cc2)C(=O)NCCCN(C)C)cc1	4%	4%	0.5%	-7
38	O=C(COc1ccccc1Br)Nc1ccccc1C(F)(F)F	-26%	-13%	0.6%	10
39	COc1ccccc1N1CCN(C(=O)C(C)N(c2ccc(C)cc2)S(C)(=O)=O)CC1 (centres undefined)	-2%	-9%	1.4%	-1
40	CCN(CC)CCCNC(=O)C1CCN(c2ncnc3c2sc2cccc(F)c23)CC1	-11%	0%	-4.2%	2
41	CC1CC(C)CN(CCCNC(=O)c2ccc3nc(N4CCCCC4)sc3c2)C1 (centres undefined)	-37%	5%	0.1%	/
42	COc1ccc(Br)c(C(=O)N(C)CC(=O)Nc2ccc(N3CCOCC3)cc2)c1	/	-5%	-3.2%	/
43	CC(C)c1ccccc1NC(=S)NN(Cc1ccccc1)c1ccccc1	6%	-4%	-2.6%	-3
44	COc1ccc(S(=O)(=O)N2CCCCCC2)cc1C(=O)N1CCN(c2ccccc2O)CC1	/	18%	-0.6%	/
45	CC(C)C(=O)Nc1nc(-c2ccc([N+](=O)[O-])cc2)cs1	-14%	1%	-1.7%	4
46	O=C(O)c1ccc(-n2c(-c3cc(-c4ccco4)[nH]n3)n[nH]c2=S)cc1	-2%	1%	-5.3%	18
47	O=C(NC1CCN(CC(=O)N(c2ccccc2)c2ccccc2)CC1)c1ccc([N+](=O)[O-])cc1	0%	5%	-0.3%	-3
48	OCC1(CC2CCCCO2)CCN(C/C=C/c2ccccc2)CC1 (centres undefined)	1%	-16%	-1.5%	11
49	Cc1cccc(OCC(=O)Nc2ccc(C(=O)NCC(C)C)cc2)c1	-6%	2%	-2.8%	/
50	Cc1cccc(N2CN(Cc3cccnc3)CNC2=S)c1C	-3%	15%	0.7%	7
51	C=CCn1c(-c2sc3nc(C)cc(C)c3c2N)n[nH]c1=S	-9%	-17%	0.6%	5
52	COc1ccccc1-n1c(C)nc(=O)c(-c2ccccc2)c1C	-2%	-16%	2.1%	-10
53	Cn1c(N)c(C(=O)CSc2nn(-c3ccccc3)c(=S)s2)c(=O)n(C)c1=O	/	14%	0.4%	/
54	O=C(CN1CCCN(Cc2ccc(F)cc2)S1(=O)=O)NC1CCCC1	1%	-17%	0.0%	/
55	Cc1ccc(-c2cc(C)nc3ncnn23)cc1	-7%	1%	0.2%	3
56	c1ccc(-n2ncc3c(NCc4ccco4)ncnc32)cc1	-20%	-1%	3.4%	0
57	CC1(C)N(O)CC(c2cccs2)=[N+]1[O-]	-11%	18%	3.1%	-5
58	CN(Cc1ccccc1)c1oc(-c2ccco2)nc1C#N	-26%	4%	-0.3%	3
59	O=[N+]([O-])c1ccccc1S(=O)(=O)N1CCN(c2ccccn2)CC1	1%	-3%	3.2%	/
60	Cc1ccc(NC(=O)c2ccccc2[N+](=O)[O-])nc1	0%	1%	-0.7%	-7

# Exported with values ahead of the structure: 5 of the compounds above.
item | miR-21 FLuc | Rango release inh | Rango-impB inh | GLA inh pH 4.5 | SMILES
48 | 1% | -16% | -1.5% | 11 | OCC1(CC2CCCCO2)CCN(C/C=C/c2ccccc2)CC1 (centres undefined)
49 | -6% | 2% | -2.8% | / | Cc1cccc(OCC(=O)Nc2ccc(C(=O)NCC(C)C)cc2)c1
50 | -3% | 15% | 0.7% | 7 | Cc1cccc(N2CN(Cc3cccnc3)CNC2=S)c1C
51 | -9% | -17% | 0.6% | 5 | C=CCn1c(-c2sc3nc(C)cc(C)c3c2N)n[nH]c1=S
52 | -2% | -16% | 2.1% | -10 | COc1ccccc1-n1c(C)nc(=O)c(-c2ccccc2)c1C

# Screen by screen, quoted from above.
# Rango release inh, nos. 14–21: -17%, 31%, 9%, ?, -9%, 0%, 7%, -12%
# GLA inh pH 4.5, nos. 14–21: 11, -1, /, /, -7, 10, -7, -27

# Other entries
entry	canonical_smiles	miR-21 FLuc	Rango release inh	Rango-impB inh	GLA inh pH 4.5
61	CCc1ccc(CNC(=O)C(=O)NCCc2ccc(OC)c(OC)c2)cc1	/	-1%	-0.8%	/
62	CCOc1ccc(S(=O)(=O)Oc2ccc3ccccc3c2)cc1	-8%	-8%	2.3%	2
63	COc1cc(/C=N/N=C(N)N)ccc1OCc1ccccc1Cl	?	2%	?	-6
64	Cc1ccc(C)c(NC(=S)/C(=C(\[O-])c2ccc(Cl)s2)[n+]2ccccc2)c1	-11%	-4%	-4.5%	-6
65	CC(C)Cn1c(-c2ccncc2)n[nH]c1=S	1%	-1%	-2.4%	-21
66	CNCCCCOc1ccccc1-c1ccccc1	-7%	-11%	3.4%	1
67	CCCn1c(N)c(Sc2ccc(C)cc2)c(=O)n(CCC)c1=O	8%	10%	-2.0%	-9
68	Cc1ccccc1NC(=O)COC(=O)c1n[nH]c(=O)c2ccccc12	/	0%	3.8%	/
69	Cc1ccc(/C=N/N2C(=S)SC(C)(C)C2N(O)C(=O)Nc2ccc([N+](=O)[O-])cc2)cc1 (centres undefined)	-8%	-17%	-0.6%	1
70	CCOc1ccc(NC(=O)CN(C)CC(=O)Nc2ccccc2C#N)cc1OCC	-10%	7%	0.3%	-1
71	CCOC(=O)C1=C(COC(=O)CSc2ccc(Br)cc2)NC(=O)NC1C (centres undefined)	/	1%	0.9%	/
72	COc1cccc(-c2cc(C(=O)Nc3ccccc3SC)no2)c1	-44%	-7%	0.0%	-3
73	CCN(CC)c1nc2c(s1)C(=O)NCCC2	-10%	4%	3.9%	-8
74	COC(=O)c1ccc(NC(=O)COc2ccc(C3C(C#N)=C(N)Oc4c3ccc3ccccc43)cc2OC)cc1 (centres undefined)	19%	-16%	?	1
75	Cc1ccnc(NC(=O)c2ccc(S(=O)(=O)c3ccccc3)cc2)c1	-6%	18%	3.1%	-12
76	O=c1cc(-c2c(O)c3ccccc3n(Cc3ccccc3)c2=O)[nH][nH]1	-4%	12%	-0.1%	-25
77	CC1(C)CC(=O)C(C=NC2CCCCC2)=C(O)C1	-6%	3%	-2.2%	8
78	Cc1sc2ncn(CC(=O)NCC3COc4ccccc4O3)c(=O)c2c1S(=O)(=O)N1CCCCC1 (centres undefined)	0%	18%	5.8%	1
79	COc1cc2ncnc(NCc3ccccc3F)c2cc1OC	-7%	-10%	-0.9%	/
80	O=[n+]1c2c(n([O-])c3cc(F)c(F)cc31)CCCC2	0%	-4%	6.3%	0
81	Cc1nc(-n2cc(F)c(=O)[nH]c2=O)c2nc(C)oc2n1	-6%	4%	-1.4%	-2
82	COc1ccc(CCNC(=O)C2CCN(S(=O)(=O)N3CC(C)CC(C)C3)CC2)cc1OC (centres undefined)	9%	-13%	0.3%	3
83	Cc1ccc(CNc2ncc(-c3ccc4c(c3)OCO4)n2C)cc1	-10%	-7%	3.5%	-9
84	O=[N+]([O-])c1ccc(Cn2cc(-c3cccc(C(F)(F)F)c3)nn2)cc1	0%	5%	10%	/
85	CCC(c1nnnn1CCc1ccccc1)N(Cc1ccco1)Cc1cc2cccc(C)c2[nH]c1=O (centres undefined)	16%	7%	-0.3%	-8
86	C=CCOc1cccc(C2/C(=C(\O)c3ccc(F)cc3)C(=O)C(=O)N2CCN(C)C)c1 (centres undefined)	-1%	-18%	-0.2%	-1
87	COc1ccc(C2CC(=O)N(C)c3ccccc3S2)cc1OC (centres undefined)	-76%	1%	8.4%	1
88	CCC(C(=O)NCc1ccco1)n1nc(C)n2c(cc3occc32)c1=O (centres undefined)	0%	13%	4.0%	/
89	CN(C(=O)COC(=O)Cc1c(F)cccc1Cl)c1c(N)n(Cc2ccccc2)c(=O)[nH]c1=O	/	-2%	-3.1%	/
